SARS PLP yeast = blocks SARS-CoV papain-like protease in a yeast assay | S. cerevisiae expressing SARS-CoV PLpro, growth rescue; control for the full effect not named in the record | Potency, µM (highest dose often 32.9 µM), inactives show top-dose activity, positive = growth rescue | 330,000 compounds, 0.19% hits; active means well fitted rising curve with a large enough effect; inconclusive means small, poorly fitted or top-dose-only effect; inactive means no such curve, though single readings can be large or run the other way; also: 0% is about no effect; nearly all actives have a fitted effect of over 55% in size; growth read by luminescence after 48 h
2A StopGo = FMDV 2A StopGo reporter, luciferase signal | human cells with a luciferase reporter of 2A StopGo recoding; control for the full effect not named in the record | 410,000 compounds, 1.2% hits | AID 1159524 | Potency, µM (top dose mostly 57.9 µM), inactives show at the top dose signal change, negative = less light; active = well fitted falling curve with a large enough effect; inconclusive = small, poorly fitted or top-dose-only effect; inactive = no such curve, though single readings can be large or run the other way; tested in HEK293T cells; also: % is scaled to controls: 0 for no effect and ±100 for the full control effect; nearly all actives have a fitted effect of over 45% in size; luciferase light after 4 h
RE007 growth inh = less growth of the S. pombe RE007 Vpr strain; Potency, µM (doses to about 92.2 µM), inactives show at the top dose activity change, negative = less growth; 360,000 compounds, 0.21% hits; S. pombe RE007 Vpr strain, BacTiter-Glo ATP luminescence, 24 h; control for the full effect not named in the record; AID 651644; active = well fitted falling curve with a large enough effect; inconclusive = small, poorly fitted or top-dose-only effect; inactive = no such curve, though single readings can be large or run the other way;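 also: % is scaled to controls: 0 for no effect and ±100 for the full control effect; nearly all actives have a fitted effect of over 50% in size; the assay follows cell death caused by Vpr and the record does not say whether a fall means rescue or toxicity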
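Fission yeast strain RE007, carrying one chromosomally integrated HIV-1 vpr copy, was seeded at OD 0.01 in PMG+AL medium with 23 nL pinned compound. After 24 h at 30 °C and 99% humidity, viability was read by BacTiter-Glo luminescence.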
An asterisk follows results filed as active; u = inconclusive; [ ] = another dose, or the depositor's remark. Potency is read from the fitted curve at half-maximal effect. The list is partial, so the mix of outcomes need not match the whole.

SMILES | SARS PLP yeast | 2A StopGo | RE007 growth inh
C[C@@H](OC(=O)N1CCCCC1)[C@H]1O[C@]2(C)CCCC[C@H]1O2 | -1% | -4% | 1%
Cc1ccc(NC(=O)CCNC(=O)c2ccccc2Cl)cc1S(=O)(=O)N1CCCCCC1 | 15% | u | 4%
CCOc1ccc(C(=O)NCC(=O)OCc2nnc(-c3ccccc3)o2)cc1OCC | 3% | 14% | 10%
COc1cc([C@@H]2CC=C(C(=O)O)[C@H](c3ccc(Cl)cc3)N2S(=O)(=O)c2ccc(C)cc2)cc(OC)c1OC | 1% | 0% | 16%
COc1cccc(-c2sc3ccc(OC)cc3c2-c2ccc(O)cc2)c1 | -4% | -12% | u
O=S(=O)(c1ccc(Cl)cc1)N1CCCC(c2nc(-c3ccc(F)cc3)no2)C1 (stereo not drawn) | 0% | -6% | 14%
COC(=O)c1ccc(CNC(=O)COC(=O)c2cc(Cl)ccc2O)cc1 | -1% | -4% | 1%
Cc1cc(C)c(NC(=O)CN(C)C(=O)c2ccc(OCc3ccccc3)cc2)c(C)c1 | 1% | 16% | 0%
COc1cccc(C(=O)OCC(=O)Nc2sc3c(c2C(N)=O)CCC3)c1O | -11% | -9% | -9%
O=C(COc1cc(F)ccc1[N+](=O)[O-])N1N=C(c2cccs2)CC1c1ccco1 (stereo not drawn) | 5% | -9% | -4%
CC(C)NC(=O)N(C)C[C@H]1Oc2ccc(NC(=O)Cn3cnnn3)cc2C(=O)N([C@H](C)CO)C[C@@H]1C | 1% | -13% | 12%
CCc1ccccc1N1CC(C(=O)N2Cc3ccccc3CC2C(N)=O)CC1=O (stereo not drawn) | 5% | -9% | 0%
C[C@@H]1CN([C@H](C)CO)C(=O)Cc2cc(NC(=O)CCC(F)(F)F)ccc2O[C@@H]1CN(C)C(=O)Nc1ccccc1 | -2% | -13% | -10%
CC1CCCC(NC(=O)c2cccs2)C1C (stereo not drawn) | 2% | 8% | -27%
CCN1CCN(CCNC(=O)c2ccc(/C=C3/Sc4ccccc4N(Cc4ccccc4C)C3=O)cc2)CC1 | -2% | 1% | 25%
CC(=O)Nc1ccc(C(c2c(O)c3ccccc3oc2=O)c2c(C)n(C)n(-c3ccccc3)c2=O)cc1 (stereo not drawn) | -1% | 25% | 8%
COc1ccc(S(=O)(=O)N2CCOCC2)cc1NC(=O)CCNC(=O)c1ccc([N+](=O)[O-])cc1 | -10% | -14% | 2%
COc1ccc(NS(=O)(=O)c2cccc(C(=O)NNC(=O)c3ccc(C)o3)c2)cc1 | 4% | -17% | -6%
CCC(C)(C)NC(=O)C1CCN(c2nc(OC)nc(OC)n2)CC1 | 1% | -19% | 0%
COc1cc(CCC(=O)Nc2nnc(-c3cccnc3)s2)cc(OC)c1OC | -2% | -15% | 12%
CC(NC(=O)CSc1ccccc1C(=O)O)C1CC2CCC1C2 (stereo not drawn) | 0% | -9% | 2%
CCOC(=O)c1ccc(-c2c(-c3ccccc3OC)oc3ccccc23)cc1F | -3% | 3% | 8%
CC(C)c1cc(C(=O)NCCc2ccccc2)no1 | 0% | 43%[activator] | -18%
CC1c2cccn2CCN1S(=O)(=O)c1ccccc1 (stereo not drawn) | -2% | -9% | -19%
C#CCOCCOCCOCCNc1nc(N2CCN(C(=O)CCCCCCCCCCNC(=O)[C@H](CCCCN)n3cc(C[C@@H](C)CC)nn3)CC2)nc(N2CCN(C(=O)CCCCCCCCCCNC(=O)[C@H](CCCN=C(N)N)n3cc(C[C@@H](C)CC)nn3)CC2)n1 | 1% | -41% | 4%
O=C(N[C@@H](Cc1ccccc1)C(=O)OCc1ccccc1)c1nc[nH]c1C(=O)NC1CCNCC1 | 0% | -23% | -24%
Cc1ccc(CN2CCSc3ccc(C(=O)NCc4ccccn4)cc32)cc1 | -4% | 24% | 17%
Cc1ccc(C)c(NC(=O)c2cc(-c3cccnc3)nc3ccccc23)c1 | -6% | 0% | -4%
CCOC(=O)c1c(C)[nH]c(C)c1C(=O)COC(=O)CCc1ccccc1 | 3% | -24% | -2%
N#CCC(=O)c1ccccc1Oc1ccc(Cl)cc1 | -4% | -9% | 1%
Cc1noc(C)c1COc1ccc(C(=O)NCCOc2ccccc2)cc1 | -4% | 24% | 13%
CC(C)(C)OC(=O)C[C@@H]1C/C=C\C[C@@H](CC(=O)NCCO)C(=O)N[C@H](Cc2ccccc2)COC1=O | -3% | 8% | -12%
Cc1ccnc(NC(=O)C(Cc2ccccc2)NC(=O)c2ccccc2)c1 (stereo not drawn) | -2% | 15% | -14%
Cc1ccc(S(=O)(=O)N2CCOCC2)cc1NC(=O)CSc1nnnn1C1CCCC1 | -1% | -6% | 5%
COc1ccc(C(=O)NCC(=O)OCC(=O)NCc2ccco2)cc1 | 3% | 2% | -18%
Nc1ccn(CC(=O)NCCNc2ccc([N+](=O)[O-])cn2)c(=O)n1 | -2% | -12% | -1%
COc1ccccc1-n1c(-c2ccccc2)c[nH]c1=S | 4% | -12% | 8%
C=CC[C@H](CC(=O)NCCO)C(=O)N[C@@H](COC(=O)[C@H](CC=C)CC(=O)OC(C)(C)C)Cc1c[nH]c2ccccc12 | 9% | -13% | 4%
CCOc1ccc(S(=O)(=O)N2CCNC(=O)C2)cc1 | 1% | 6% | 5%
Cc1ccc(S(=O)(=O)N2CCN(C(=O)COC(=O)C3CC3C)CC2)c(C)c1 (stereo not drawn) | 6% | -21% | 18%
CN1CCN(S(=O)(=O)c2ccc(N3CCN(c4ccccc4Cl)CC3)nc2)CC1 | 0% | u | 0%
CC(C)C[C@H]1CN=C(Nc2ccccc2)N1CCc1cccc(F)c1 | -3% | 0% | 0%
NC(=O)Nc1ccc(C(=O)OCC(=O)Nc2cccc(S(=O)(=O)NC3=NCCC3)c2)cc1 | 4% | -1% | -9%
O=C(CCN1CCN(c2ccccc2)CC1)NNC(=O)Cc1ccccc1Cl | 7% | 0% | 12%
CCOC(=O)[C@H]1[C@H]2COc3ccc(C)cc3[C@@H]2N2C(=O)CN(CC3CCCO3)C(=O)[C@@]12C (stereo partly drawn) | -4% | -9% | 3%
Cc1ccc(C2=CN(Cc3ccccc3)CCC2=O)cc1 | -3% | 6% | 16%
CC(Sc1ncn[nH]1)C(=O)Nc1cc(C(F)(F)F)ccc1Cl (stereo not drawn) | 14% | -8% | -12%
COc1ccc(CCNC(=O)COC(=O)COc2ccc(Cl)cc2)cc1OC | -5% | -11% | 1%
CCCN(CCC)S(=O)(=O)c1ccc(C(=O)Nc2nnc(COC)o2)cc1 | 26% | -13% | -1%
C=CCn1c(SCC(=O)NC(=O)Cc2ccccc2)nc2ccccc2c1=O | -7% | -15% | -5%
CCN(CC)C(=O)[C@H]1CC(CC(=O)NC/C=C(\C)CCC=C(C)C)C(=O)N2CCc3c([nH]c4ccccc34)[C@]12C (stereo partly drawn) | -1% | 0% | 3%
O=C(Nc1ccccc1N1CCOCC1)c1ccc(N2CCCC2=O)cc1 | 1% | -17% | -11%
COc1cc(OC)cc(-c2c(-c3cccs3)c3cc(-c4cnc(OC)nc4)ccc3n2C)c1 | -1% | u | -5%
COc1ccc(C(=O)OCC(=O)c2ccc3c(c2)NC(=O)CO3)cc1OC | 0% | -10% | -1%
CC(=O)Nc1ccc(C(=O)COC(=O)c2cccs2)c(F)c1 | -7% | 61%[activator] | 1%
O=C(NCC(c1ccco1)N1CCCCC1)c1cccnc1 (stereo not drawn) | -9% | -14% | -6%
C[C@H](CO)N1C[C@H](C)[C@@H](CN(C)S(=O)(=O)c2cccs2)Oc2c(NC(=O)CCC(F)(F)F)cccc2C1=O | -4% | 9% | -21%
CCC[C@@H](CN1CCC[C@H]1CN1C(N)=NC[C@@H]1Cc1ccccc1)N1C[C@@H](Cc2ccccc2)N(CCCC2CCCC2)C1=N | -13% | -25% | 15%
CCN(CC)C(=O)c1ncn(Cc2ccccc2)c1C(=O)N(CC)CC | -8% | 2% | -5%
Cc1cc(C)n2nc(C(=O)OCC(=O)N(C)C3CCS(=O)(=O)C3)nc2n1 (stereo not drawn) | 0% | -20% | -11%

(cont.)
SMILES | SARS PLP yeast | 2A StopGo | RE007 growth inh
O=C(COC(=O)c1ccc(F)c(S(=O)(=O)N2CCOCC2)c1)NC1CC1 | 0% | -11% | 5%
Cc1nnc(SCC(=O)NNC(=O)c2ccccc2)n1N | 7% | -5% | -17%
CCN1C(=O)[C@H]2[C@@H](c3ccc(-c4ccccc4)cc3)N3CCC[C@@]3(C(=O)OC)[C@H]2C1=O | -17% | -15% | 12%
NS(=O)(=O)c1ccc(NC(=O)CSc2nnc(C3CC3)n2C2CC2)cc1 | -5% | -15% | -19%
CCN1C(=O)c2cccc3c(S(=O)(=O)N(C(C)=O)c4ccc(OC(C)=O)cc4)ccc1c23 | -2% | 5% | -1%
CC1CCC2(CC1)NC(=O)N(CC(=O)Nc1sc3c(c1C(N)=O)CCC3)C2=O (stereo not drawn) | 0% | -3% | -3%
O=C(COc1ccc(Cl)cc1Cl)N1CCNC1=O | 3% | 23% | 0%
Cc1ccccc1NC(=O)Cc1nc(COC(=O)c2cccnc2Cl)cs1 | -1% | 4% | -4%
Cc1ccc(C)c(NC(=O)COC(=O)c2c(C)nn(-c3ccccc3)c2C)c1 | 4% | 0% | 26%
COc1ccc(C(=O)C(C)OC(=O)COc2ccccc2)cc1 (stereo not drawn) | -2% | 0% | 8%
O=C(NCC1CCCO1)c1ccccc1NS(=O)(=O)c1cccc([N+](=O)[O-])c1 (stereo not drawn) | -1% | 1% | -1%
Cc1ccc(S(=O)(=O)N2CCOCC2)cc1NS(=O)(=O)c1ccc(F)c(F)c1 | -2% | 31%[activator] | 2%
CCCSc1ccc([C@H]2N[C@@](C)(C(=O)OC)[C@H]3C(=O)N(C)C(=O)[C@@H]23)cc1 | -1% | -10% | 1%
COc1ccccc1-c1oc2ccccc2c1-c1ccc2c(c1)OCO2 | -5% | 11% | 2%
CN(C)CCCN(C(=O)CCOc1ccccc1)c1nc2ccc(F)cc2s1 | -3% | 0% | -22%

Reprinted at random: 7 records from the list
SMILES | SARS PLP yeast | 2A StopGo | RE007 growth inh
O=C(COc1ccc(Cl)cc1Cl)N1CCNC1=O | 3% | 23% | 0%
Cc1ccc(C)c(NC(=O)COC(=O)c2c(C)nn(-c3ccccc3)c2C)c1 | 4% | 0% | 26%
O=C(NCC1CCCO1)c1ccccc1NS(=O)(=O)c1cccc([N+](=O)[O-])c1 (stereo not drawn) | -1% | 1% | -1%
CCCSc1ccc([C@H]2N[C@@](C)(C(=O)OC)[C@H]3C(=O)N(C)C(=O)[C@@H]23)cc1 | -1% | -10% | 1%
COc1ccccc1-c1oc2ccccc2c1-c1ccc2c(c1)OCO2 | -5% | 11% | 2%
CN(C)CCCN(C(=O)CCOc1ccccc1)c1nc2ccc(F)cc2s1 | -3% | 0% | -22%
Cc1ccc(S(=O)(=O)N2CCOCC2)cc1NS(=O)(=O)c1ccc(F)c(F)c1 | -2% | 31%[activator] | 2%

Remaining list, next part
SMILES | SARS PLP yeast | 2A StopGo | RE007 growth inh
C=CC[C@@H](CC(=O)N[C@@H](CO)Cc1ccccc1)C(=O)NC[C@@H](OC(=O)[C@@H](CC=C)CC(=O)OC(C)(C)C)c1ccccc1 | 2% | -21% | -8%
Cc1ccc(NC(=O)[C@@H]2CCCN2C(=O)c2cccs2)cc1S(=O)(=O)N1CCCCC1 | -1% | -10% | 8%
COc1ccc2oc(C(=O)OCC(=O)NCCc3ccc(S(N)(=O)=O)cc3)c(C)c2c1 | 2% | u | 6%
CCOC(=O)[C@H]1[C@H]2COc3ccc(OC)cc3[C@@H]2N2C(=O)c3ccccc3NC(=O)[C@@]12C | -6% | -4% | -10%
O=C(O)c1ccc(N2C(=O)c3ccc(C(=O)c4cccc([N+](=O)[O-])c4)cc3C2=O)cc1 | -1% | -11% | 18%
CCCCNc1nc(NC)nc(Cl)c1SC | -1% | -3% | 7%
O=C(CNCc1ccncc1)Nc1cc(S(=O)(=O)N2CCCCC2)ccc1Cl | -8% | 1% | 2%
COc1ccccc1N1CCN(/N=C/C=C\c2ccccc2[N+](=O)[O-])CC1 | -4% | -6% | 4%
CCOC(=O)CC[C@H](NC(=O)Cn1cnc2c(SC)nc(N)nc21)C(=O)OCC | -5% | 0% | -16%
CN(C(=O)c1cccs1)c1ccc(OCC(=O)N2CCC(C(N)=O)CC2)cc1 | -2% | -19% | 6%
COc1ccccc1OCc1ccc(C(=O)NCC2CCCO2)cc1 (stereo not drawn) | 2% | 7% | 14%
CC1CCCCN1C(=S)NC(=O)c1cc(Br)ccc1Cl (stereo not drawn) | 2% | -28% | u
Cc1ccc(S(=O)(=O)N2CCOCC2)cc1C(=O)NNC(=O)c1ccoc1C | -1% | -15% | 4%
COc1ccc(C2/C=C\CN3CCC[C@H]3C(=O)N2Cc2ccc(F)cc2)cc1 (stereo partly drawn) | 4% | -18% | -7%
